From PubChem
FGF22 binding: binders of recombinant human FGF22 by thermal shift; Q9HCT0; SYPRO orange fluorescence; percent of sucrose octasulfate shift, DMSO zero; calls only at 9.99 µM; 340,000 compounds, 1.5% hits; AID 651658;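 active = melting point raised past a set limit in the mean and every replicate; three in four hits are not shown here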
Target sequence (Q9HCT0 whole entry, looked up): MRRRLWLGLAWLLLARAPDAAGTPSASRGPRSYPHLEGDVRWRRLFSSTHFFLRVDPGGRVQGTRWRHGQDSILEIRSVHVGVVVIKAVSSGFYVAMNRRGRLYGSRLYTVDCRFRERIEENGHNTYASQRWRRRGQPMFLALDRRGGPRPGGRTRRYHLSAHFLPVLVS
Calls only; i = inactive; + = active, no number.

FGF22 binding	mol
i	C[C@@H]1CN([C@@H](C)CO)C(=O)CCCn2cc(nn2)CO[C@H]1CN(C)C(=O)Nc1ccc(C(F)(F)F)cc1
i	C[C@@H]1CN([C@@H](C)CO)C(=O)c2cccc(NC(=O)c3nc4ccccc4s3)c2O[C@H]1CN(C)C(=O)Nc1ccccc1
i	COc1cccc(CNC(=O)C[C@@H]2CC[C@@H]3[C@H](COc4ccc(NC(=O)c5cccs5)cc4C(=O)N3C)O2)c1
i	CS(=O)(=O)Nc1ccc2c(c1)[C@H]1C[C@H](CC(=O)NCc3ccccc3F)O[C@H](CO)[C@H]1O2
i	C[C@@H](NC(=O)C[C@H]1C[C@H]2c3cc(NC(=O)NC4CCCC4)ccc3O[C@H]2[C@H](CO)O1)c1ccccc1
i	CCCNC(=O)C[C@H]1CC[C@H]2[C@@H](COc3ccc(NC(=O)Nc4cccc(C)c4)cc3C(=O)N2C)O1
i	C[C@@H]1CN([C@H](C)CO)C(=O)c2cc(NC(=O)CCN3CCOCC3)ccc2O[C@H]1CN(C)Cc1ccc(Oc2ccccc2)cc1
i	Cc1ccc(S(=O)(=O)N(C)C[C@@H]2Oc3ccc(NC(=O)Cc4cn(C)c5ccccc45)cc3C(=O)N([C@@H](C)CO)C[C@H]2C)cc1
i	COc1ccc(C(=O)N2C[C@H]3[C@@H](c4ccccc42)[C@@H](CO)N3Cc2ccc3c(c2)OCO3)cc1
i	C[C@@H]1CN([C@H](C)CO)C(=O)c2cc(/C=C/c3ccccc3)cnc2O[C@H]1CN(C)C(=O)C1CCC1
i	O=C(c1ccccc1)N1C[C@@H]2[C@H](c3ccccc31)[C@@H](CO)N2C(=O)CN1CCOCC1
i	C[C@@H]1CN([C@@H](C)CO)C(=O)c2cccc(NC(=O)Nc3cccc4ccccc34)c2O[C@@H]1CN(C)CC1CC1
i	COc1ccccc1-c1ccccc1[C@H]1[C@@H](C#N)N(C(=O)C2CC2)[C@H]1CO
i	COCC(=O)N(C)C[C@@H]1Oc2ncc(C#Cc3cccnc3)cc2C(=O)N([C@H](C)CO)C[C@@H]1C
i	CO[C@H]1CC[C@H]2CCN(C)C(=O)[C@H](C)N(C)C(=O)c3cc(C#N)ccc3OC[C@@H]1O2
i	C[C@@H]1CN([C@H](C)CO)S(=O)(=O)c2ccc(/C=C/c3ccccc3)cc2O[C@H]1CN(C)C(=O)c1ccncc1
i	COc1ccc(S(=O)(=O)N[C@@H]2CC[C@H](CC(=O)NCc3ccccc3F)O[C@H]2CO)cc1
i	COc1ccc(C#Cc2ccc3c(c2)[C@@H]2[C@@H](CCN2S(=O)(=O)c2ccccc2C)[C@@H](CO)N3)cc1
i	CO[C@@H]1CC[C@H]2CCN(C)C(=O)[C@H](C)CN(C)C(=O)c3cc(C#N)ccc3OC[C@H]1O2
i	COc1ccc(CNC(=O)C[C@H]2CC[C@@H]3[C@@H](COc4ccc(NC(=O)C(C)C)cc4C(=O)N3C)O2)cc1
i	C[C@@H]1CN([C@@H](C)CO)C(=O)c2cc(-c3ccccc3)cnc2O[C@@H]1CN(C)C(=O)Nc1ccccc1
i	O=C(C[C@@H]1CC[C@H](NC(=O)c2cccc(F)c2)[C@@H](CO)O1)Nc1nccs1
i	C[C@H]1CN([C@@H](C)CO)C(=O)c2cc(C#CC(C)(C)O)cnc2O[C@@H]1CN(C)C(=O)CC1CC1
i	C/C=C/c1ccc2c(c1)O[C@H](CN(C)C(=O)Cc1ccccn1)[C@@H](C)CN([C@H](C)CO)S2(=O)=O
i	CS(=O)(=O)Nc1ccc2c(c1)[C@H]1C[C@H](CC(=O)NCc3cccnc3)O[C@H](CO)[C@H]1O2
i	CCCNC(=O)[C@H]1[C@H](CO)[C@H]2Cn3c(ccc(C4=CCCCC4)c3=O)[C@@H]1N2CCC
i	CC(C)C#Cc1ccc([C@H]2[C@H](CO)N3CCCCN(C(=O)c4ccc5c(c4)OCO5)C[C@@H]23)cc1
i	C[C@@H]1CN([C@H](C)CO)C(=O)c2cc(NS(=O)(=O)c3ccccc3)ccc2O[C@H]1CN(C)C(=O)Nc1ccc2c(c1)OCO2
i	CCC(=O)Nc1ccc2c(c1)C(=O)N(C)C[C@@H](OC)[C@H](C)CN(C(=O)CC1CC1)[C@H](C)CO2
i	C[C@@H]1CCCCO[C@H](CN(C)CC2CC2)[C@H](C)CN([C@@H](C)CO)C(=O)c2cc(NS(C)(=O)=O)ccc2O1

Two entries from above, as tab-separated lines.
mol	FGF22 binding
C[C@H]1CN([C@@H](C)CO)C(=O)c2cc(C#CC(C)(C)O)cnc2O[C@@H]1CN(C)C(=O)CC1CC1	i
C/C=C/c1ccc2c(c1)O[C@H](CN(C)C(=O)Cc1ccccn1)[C@@H](C)CN([C@H](C)CO)S2(=O)=O	i

Next section:
FGF22 binding	mol
i	C[C@@H]1CN([C@@H](C)CO)C(=O)Cc2cc(NC(=O)C3CC3)ccc2O[C@@H]1CN(C)S(=O)(=O)c1cccs1
i	CCNC(=O)C[C@@H]1CC[C@@H]2[C@H](COC[C@H](O)CN2C(=O)C2CCOCC2)O1
i	Nc1[nH]c(C(=O)c2ccccc2)c(-c2cccc3ccccc23)c1C(=O)c1cccs1
i	COc1ccc(CN(C)C[C@H]2Oc3c(NS(C)(=O)=O)cccc3C(=O)N([C@H](C)CO)C[C@@H]2C)cc1
i	C[C@H]1CN([C@@H](C)CO)C(=O)Cc2cc(NC(=O)Cc3cn(C)c4ccccc34)ccc2O[C@H]1CN(C)C(=O)Nc1ccc(C(F)(F)F)cc1
i	O=C(C[C@H]1C[C@@H]2c3cc(NC(=O)Nc4ccc(C(F)(F)F)cc4)ccc3O[C@@H]2[C@H](CO)O1)NCCc1ccccc1
i	C[C@H](CO)N1C[C@H](C)[C@H](CN(C)C(=O)Nc2ccc(F)cc2)OCCCC[C@H](C)Oc2ccc(NS(=O)(=O)c3ccccc3)cc2C1=O
i	CN(C)CC#Cc1ccc([C@@H]2[C@H]3CN(C(=O)CN(C)C)CCCCN3[C@H]2CO)cc1
i	CC(C)NC(=O)Nc1ccc2c(c1)C(=O)N([C@H](C)CO)C[C@H](C)[C@H](CN(C)Cc1ccc3c(c1)OCO3)OCCCC[C@H](C)O2
i	C[C@@H]1CCCCO[C@@H](CN(C)C(=O)C2CCCCC2)[C@H](C)CN([C@H](C)CO)C(=O)c2cc(NC(=O)Nc3ccc4c(c3)OCO4)ccc2O1
i	C[C@@H]1CN([C@H](C)CO)C(=O)c2cc(-c3ccc(C#N)cc3)cnc2O[C@H]1CN(C)CC1CCCCC1
i	COc1cccc(CN2CC3(CN(C(C)=O)C3)c3c(n(C)c4cc(OC)ccc34)[C@H]2CO)c1
i	CO[C@H]1CN(C)C(=O)c2ccc(NC(=O)NC(C)C)cc2OC[C@H](C)N(CC2CC2)C[C@H]1C
i	CO[C@H]1CN(C)C(=O)c2ccc(NC(=O)C3CC3)cc2OC[C@H](C)N(Cc2ccncc2)C[C@H]1C
i	CC(C)NC(=O)Nc1ccc2c(c1)C(=O)N([C@@H](C)CO)C[C@@H](C)[C@@H](CN(C)C(=O)C1CCCCC1)OCCCC[C@H](C)O2
i	O=C(C[C@H]1C=C[C@H](NC(=O)C2CCOCC2)[C@@H](CO)O1)NCC1CCCCC1
i	CO[C@H]1CN(C)C(=O)c2ccc(NC(=O)CC(F)(F)F)cc2OC[C@@H](C)N(C(=O)C2CCCCC2)C[C@@H]1C
i	C[C@@H]1CN([C@@H](C)CO)C(=O)c2cc(NC(=O)Nc3ccc4c(c3)OCO4)ccc2O[C@@H](C)CCCCO[C@@H]1CN(C)C(=O)NC1CCCCC1
i	COc1ccccc1CN1CC[C@@H]2[C@H](CO)Nc3ccc(-c4cccc(C(=O)N(C)C)c4)cc3[C@@H]21
i	C[C@@H]1CCCCO[C@@H](CN(C)CC2CCCCC2)[C@@H](C)CN([C@H](C)CO)C(=O)c2cc(NC(=O)NC3CCCCC3)ccc2O1
i	O=C(C[C@H]1C[C@@H]2c3cc(NS(=O)(=O)c4ccc(F)cc4)ccc3O[C@@H]2[C@@H](CO)O1)NCc1ccc(Oc2ccccc2)cc1
i	CN(C)C(=O)c1ccc(-c2ccc([C@H]3[C@@H](C#N)N(C(=O)C4CCOCC4)[C@H]3CO)cc2)cc1
i	C[C@@H]1CN([C@H](C)CO)S(=O)(=O)c2ccc(C#CC3CCCC3)cc2O[C@@H]1CN(C)Cc1ccccc1C(=O)O
i	Cc1ccccc1S(=O)(=O)NCC[C@H]1CC[C@@H](NC(=O)C2CCCC2)[C@H](CO)O1
i	COCC(=O)N(C)C[C@@H]1Oc2ncc(C#Cc3ccncc3)cc2C(=O)N([C@@H](C)CO)C[C@@H]1C
i	CO[C@@H]1CN(C)C(=O)c2ccc(NS(C)(=O)=O)cc2OC[C@H](C)N(C(=O)C2CCOCC2)C[C@H]1C
i	CN1CCN(C(=O)[C@H]2[C@H](CO)[C@H]3Cn4c(ccc(-c5cccnc5)c4=O)[C@H]3N2CC2CC2)CC1
i	C[C@@H]1CN([C@H](C)CO)C(=O)c2cc(NS(=O)(=O)c3cn(C)cn3)ccc2O[C@H]1CN(C)Cc1ccc(-c2ccccc2)cc1
i	CCCC#Cc1ccc2c(c1)O[C@H](CN(C)C(=O)c1ccccc1F)[C@H](C)CN([C@@H](C)CO)S2(=O)=O
i	C[C@H](CO)N1C[C@H](C)[C@H](CN(C)S(=O)(=O)c2cccs2)Oc2ncc(C#Cc3ccccc3)cc2C1=O

Grouped by structure, the entries above containing a CF3 group.
FGF22 binding	mol
i	C[C@@H]1CN([C@@H](C)CO)C(=O)CCCn2cc(nn2)CO[C@H]1CN(C)C(=O)Nc1ccc(C(F)(F)F)cc1
i	C[C@H]1CN([C@@H](C)CO)C(=O)Cc2cc(NC(=O)Cc3cn(C)c4ccccc34)ccc2O[C@H]1CN(C)C(=O)Nc1ccc(C(F)(F)F)cc1
i	O=C(C[C@H]1C[C@@H]2c3cc(NC(=O)Nc4ccc(C(F)(F)F)cc4)ccc3O[C@@H]2[C@H](CO)O1)NCCc1ccccc1
i	CO[C@H]1CN(C)C(=O)c2ccc(NC(=O)CC(F)(F)F)cc2OC[C@@H](C)N(C(=O)C2CCCCC2)C[C@@H]1C

New compounds follow.
FGF22 binding	mol
i	COc1cccc(C(=O)N2C[C@H]3[C@@H](c4ccccc42)[C@H](CO)N3C(=O)c2ccccc2)c1
i	C[C@@H]1CN([C@@H](C)CO)S(=O)(=O)c2ccc(-c3ccncc3)cc2O[C@@H]1CN(C)Cc1ccc(Oc2ccccc2)cc1
i	COCC(=O)Nc1ccc2c(c1)C(=O)N(C)C[C@@H](OC)[C@H](C)CN(C(=O)c1cnccn1)[C@H](C)CO2
i	C[C@@H]1CN([C@H](C)CO)C(=O)c2cc(C#Cc3ccccn3)cnc2O[C@H]1CN(C)CC1CCOCC1
i	CN(C)Cc1cn(CC[C@H]2CC[C@@H](NS(=O)(=O)c3ccccc3)[C@H](CO)O2)nn1
+	C[C@@H]1CCCCO[C@H](CN(C)Cc2ccc(C(=O)O)cc2)[C@H](C)CN([C@@H](C)CO)C(=O)c2cc(NS(=O)(=O)c3cn(C)cn3)ccc2O1
i	C[C@@H]1CN([C@H](C)CO)C(=O)Cc2cc(NC(=O)CCC(F)(F)F)ccc2O[C@@H]1CN(C)C(=O)Nc1ccc2c(c1)OCO2
i	CCCC#Cc1ccc([C@H]2[C@@H](CO)N3CCCCN(S(=O)(=O)c4ccccc4C)C[C@@H]23)cc1
i	CC(=O)Nc1ccc2c(c1)C(=O)N(C)[C@H]1CC[C@@H](CC(=O)NCc3ccc(F)cc3)O[C@H]1CO2
i	CO[C@@H]1CN(C)C(=O)c2ccc(NC(=O)Nc3c(C)noc3C)cc2OC[C@@H](C)N(C)C[C@H]1C
i	CC(C)C#Cc1cnc2c(c1)C(=O)N([C@@H](C)CO)C[C@@H](C)[C@H](CN(C)C(=O)c1cccc(F)c1)O2
i	CC(C)NC(=O)NCC[C@H]1CC[C@H](NS(=O)(=O)c2ccc(-c3ccccc3)cc2)[C@@H](CO)O1
i	C[C@@H](O)C#Cc1ccc2c(c1)O[C@@H](CN(C)C(=O)C1CCCCC1)[C@@H](C)CN([C@@H](C)CO)S2(=O)=O
i	C[C@@H]1CN([C@H](C)CO)C(=O)c2cccc(NC(=O)c3ccc(-c4nccs4)cc3)c2O[C@H]1CN(C)Cc1ccc(-c2ccccc2)cc1
i	CN(C)C(=O)C[C@@H]1CC[C@H](NC(=O)c2ccc(F)cc2)[C@@H](CO)O1

Four of the compounds above, tab-delimited:
canonical_smiles	FGF22 binding
C[C@@H]1CN([C@@H](C)CO)S(=O)(=O)c2ccc(-c3ccncc3)cc2O[C@@H]1CN(C)Cc1ccc(Oc2ccccc2)cc1	i
C[C@@H]1CN([C@H](C)CO)C(=O)Cc2cc(NC(=O)CCC(F)(F)F)ccc2O[C@@H]1CN(C)C(=O)Nc1ccc2c(c1)OCO2	i
C[C@@H]1CN([C@H](C)CO)C(=O)c2cc(-c3ccc(C#N)cc3)cnc2O[C@H]1CN(C)CC1CCCCC1	i
COc1cccc(CN2CC3(CN(C(C)=O)C3)c3c(n(C)c4cc(OC)ccc34)[C@H]2CO)c1	i

New compounds follow
FGF22 binding	mol
i	O=C(C[C@H]1C=C[C@H](NC(=O)C2CCOCC2)[C@H](CO)O1)NCC1CCCCC1
i	C[C@H]1CN([C@@H](C)CO)C(=O)c2cc(NC(=O)C3CC3)ccc2O[C@@H]1CN(C)Cc1ccc2c(c1)OCO2
i	O=C(NCc1ccc(F)cc1)[C@H]1[C@H](CO)[C@H]2Cn3c(cccc3=O)[C@@H]1N2CC1CC1
i	O=C(N[C@@H]1CC[C@H](CCNS(=O)(=O)c2ccc(F)cc2)O[C@H]1CO)C1CC1
i	C[C@@H]1CN([C@@H](C)CO)C(=O)c2cccc(NS(=O)(=O)c3ccccc3)c2O[C@H]1CN(C)CC1CCCCC1
i	C[C@@H]1CN([C@@H](C)CO)C(=O)c2cc(NC(=O)Cn3cnnn3)ccc2O[C@@H]1CN(C)CC1CC1
i	Cc1noc(C)c1S(=O)(=O)Nc1cccc2c1O[C@@H](CN(C)C(=O)NC1CCCCC1)[C@@H](C)CN([C@@H](C)CO)C2=O
i	COCC(=O)N[C@H]1CC[C@@H](CC(=O)N2CCCCC2)O[C@H]1CO
i	C[C@@H]1CN([C@@H](C)CO)C(=O)Cc2cc(NS(=O)(=O)c3cccs3)ccc2O[C@@H]1CN(C)CC1CCCCC1
i	C[C@@H]1CN([C@H](C)CO)S(=O)(=O)c2ccc(C3=CCCCC3)cc2O[C@@H]1CN(C)S(=O)(=O)c1cn(C)cn1

A portion of the library; count on the stated rates, not on these rows.
